Compound activity (PubChem BioAssay)
OX1R antag – human HCRTR1 antagonism; inhibition, % at 5 µM; CHO/OX1R cells, Fluo-8 calcium fluorescence, orexin A; hit rate 0.43% among 330,000; AID 434989;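 active = inhibition above its plate's threshold, mean inhibition of all tested compounds on the plate plus 3 SD, cut at about 37% in these data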;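 note: 0% = orexin A challenge wells and 100% = SB-334867-A antagonist wells; not every result past the cut was called active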
Target sequence (O43613 whole entry, looked up): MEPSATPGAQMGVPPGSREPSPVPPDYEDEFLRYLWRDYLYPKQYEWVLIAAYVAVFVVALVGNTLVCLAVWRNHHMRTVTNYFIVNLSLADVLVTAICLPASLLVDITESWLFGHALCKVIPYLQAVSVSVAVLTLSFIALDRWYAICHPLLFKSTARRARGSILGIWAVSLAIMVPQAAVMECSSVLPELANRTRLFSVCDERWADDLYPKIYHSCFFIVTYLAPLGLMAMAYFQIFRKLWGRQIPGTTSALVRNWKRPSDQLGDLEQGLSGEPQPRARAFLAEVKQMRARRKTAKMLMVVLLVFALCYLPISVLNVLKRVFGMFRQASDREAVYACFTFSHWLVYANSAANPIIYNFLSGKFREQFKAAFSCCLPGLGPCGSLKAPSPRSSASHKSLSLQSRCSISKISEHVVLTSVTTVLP
* = called active by the depositor.

smiles	OX1R antag
O=C(O)/C(=C\c1cn(-c2ccccc2)nc1-c1cccnc1)NC(=O)c1ccccc1	-5.2
NC(=O)COC(=O)CNC(=O)c1sc2ccccc2c1Cl	-4.0
CC(=O)Nc1ccc(C2(c3ccc(NC(C)=O)cc3)NC(=O)c3ccccc32)cc1	-3.4
CCc1ccc(-n2cc(-c3ccc([N+](=O)[O-])cc3)[nH]c2=S)cc1	-4.0
CCCCCCCNC(=O)C1(CC2CC(c3cccc(Br)c3)=NO2)CCN(C(=O)C2(C)CC2)CC1 (configuration not stated)	-47.0
Cc1oc(C(C)(C)C)cc1C(=O)NCC(=O)NCC(=O)O	-5.3
CCCCOC(=O)c1nc[nH]c1C(=O)OCCCC	-17.1
Cc1ccc(C(=O)NCC(=O)N2CCCCCC2)cc1	-4.7
C/C(=N\Nc1nc2ccccc2[nH]1)c1ccc(N2CCOCC2)cc1	-24.7
CC(C)C(=O)Nc1cccc(NC(=O)c2cccc([N+](=O)[O-])c2)c1	-6.7
COCc1cc(C)[nH]c(=O)c1C(=O)NC12CC3CC(CC(C3)C1)C2	-3.1
CCN(CCCNC(=O)CSc1cc(=O)n(C)c2cc(Cl)ccc12)Cc1ccccc1	-24.1
CCc1ccccc1Nc1nc(N)nc(COC(=O)c2cccn2C)n1	-17.8
O=C(CN1C(=O)COc2ccccc21)NNC(=O)Nc1ccccc1F	-14.4
Cc1c(O)nc2sc3ccccc3n2c1=O	9.3
CCC(CO)NCc1ccc(-c2ccccc2)cc1 (configuration not stated)	-14.3
O=S1(=O)N=C(Nc2nncs2)c2ccccc21	-8.7
O=C(Oc1coc(CSc2ncccn2)cc1=O)c1cccc([N+](=O)[O-])c1	-10.7
CCOC(=O)C1CCN(C2CC(=O)N(c3cccc(Cl)c3)C2=O)CC1 (configuration not stated)	-11.7
CCOc1ccc(C(=O)NCCc2cnc[nH]2)cc1	0.1
O=C(Cn1cc(C(=O)c2cccs2)c2ccccc21)NCC1CCCO1 (configuration not stated)	-43.3
Cc1sc2ncnc(SCC(=O)Nc3nc(-c4ccc(F)c(F)c4)cs3)c2c1C	-4.8
Cc1cc(C)c(NC(=O)OCCN2CCOCC2)c(C)c1	-11.6
Cc1ccc(S(=O)(=O)N2CCN(Cc3cccc(C)c3O)CC2)cc1	-33.8
COc1ccccc1/C=C/c1nc2ccc(OC(C)=O)cc2c(=O)o1	-10.9
O=C(O)CCN1C(=O)/C(=C/c2ccc(-c3nc4ccccc4s3)o2)SC1=S	-15.6
COc1cc(NC(=O)c2ccc(CNc3c(N4CCOCC4)c(=O)c3=O)cc2)cc(OC)c1	-16.5
Cc1cc(C)n(-c2nc3ccccc3[nH]c2=O)n1	1.2
CCC1CCCCN1CCCNC(=O)C1CC(=O)N(CCc2ccccc2)C1 (configuration not stated)	-5.7
CNS(=O)(=O)c1cccc(C(=O)OCC(=O)NCCCc2ccccc2)c1	-11.6
CN(CC(=O)Nc1cccnc1)S(=O)(=O)c1cc(Cl)ccc1Cl	-18.8
O=Cc1cn(-c2ccccc2)nc1-c1cc2c(ccc3ccccc32)oc1=O	-3.3
COc1ccccc1OCCSc1nc2ccccc2n1CC(N)=O	-3.8
CCS(=O)(=O)c1ccc(NC(=O)c2ccccc2Cl)c(O)c1	-12.4
Cc1cc(NC(=O)CSc2ccc(-c3nc4cc(C)c(C)cc4[nH]3)cn2)no1	-1.0
CC1=C(C(=O)OCc2ccccc2)C(c2ccc(C#N)cc2)NC(=O)N1CCCC(=O)O (configuration not stated)	8.4
CNC(=O)[C@H](C)[C@@H]1C[C@@]1(C)[C@@H](NC(=O)OCc1ccccc1)c1ccccc1	-18.4
CC1=CC2=NC(=O)CC(C)(C(=O)N(CC(=O)NC(C)C)C3CCCC3)N2C=C1 (configuration not stated)	-3.4
O=C(CC1C(=O)NCCN1Cc1cccc(C(F)(F)F)c1)NC1CCCCCC1 (configuration not stated)	-22.1
CCC(=O)Nc1ccc(N2CCCCC2)c(C(=O)Nc2ccc(OC)cc2)c1	-7.2
Cc1nc(-c2cccs2)sc1C(=O)O	-3.6
O=C(CSc1nnc(-c2ccco2)n1Cc1ccccc1)c1ccccc1	-22.6
O=C(Nc1cccc2ncccc12)c1ccc2c(c1)OCCO2	-18.1
CO/N=C/c1cccn1-c1nccc(OC)c1C#N	-20.7
CCN(CC)S(=O)(=O)c1ccc(S(=O)(=O)N2CCC(N3CCCCC3)CC2)cc1	-13.1
Cn1c(=O)[nH]c(=O)c2c1nc(NCCCn1ccnc1)n2CCOc1ccccc1	-3.7
CN(C)c1ccc(CNn2cnnc2SCc2ccc(F)cc2)cc1	-8.0
CC(C)NC(=O)CSCc1c(Cl)cccc1Cl	-26.9
O=C(O)CCCCCN1C(=O)CCC1=O	-11.5
CO/N=C(\C)C(Cc1ccc(Cl)nc1)Cc1ccc(Cl)nc1	-11.4
Cn1c(CN2CCOCC2)nc2cc(NC(=O)c3ccc(F)cc3)ccc21	-2.0
O=C(NCc1cccnc1)C12CC3CC(CC(Cl)(C3)C1)C2	-17.1
COc1ccc(OC)c(N(C(=O)c2snc(C(N)=O)c2N)C(C(=O)NCC2CCCO2)c2ccc3ncccc3c2)c1 (configuration not stated)	-37.0
COc1cc2c3nnc(-c4ccc(F)cc4)c-3cn(Cc3ccc(F)cc3)c2cc1OC	-17.7
O=C(CN1CCN(c2ccc(Cl)cc2)CC1)Nc1cccc(F)c1	-30.6
CSCCC(NC(=O)c1ccco1)C(=O)N1CCCCCCC1 (configuration not stated)	-15.7
Oc1cccc(/C=N/Nc2ccc(Cl)nn2)c1	-23.4
CC(=O)Nc1ccc(NC(=O)CSc2ccc(-c3ccc(-n4ccnc4)cc3)nn2)cc1	2.0
Cc1ccc(CNC(=O)Cn2cnc(S(=O)(=O)N3CCCCC3)c2)o1	-9.9
O=C(NC(Cc1ccccc1)C(=O)O)C1CCCCC1 (configuration not stated)	-1.7

More records follow.
smiles	OX1R antag
CC12C(=O)N(CCC(=O)O)C(=O)C1C1C=CC2C1 (configuration not stated)	-31.3
COc1ccc(Cl)cc1NC(=S)N1CCC(c2ccc(C)cc2)C1 (configuration not stated)	-34.9
O=C(CSc1nncn1-c1ccccc1)Nc1c(F)cccc1F	-5.6
CC(=O)N1CCN2C(=O)C1CCCC(=O)c1cc(C(C)C)ccc12 (configuration not stated)	-9.6
O=c1c2[nH]c3ccc(F)cc3c2ncn1Cc1ccncc1	-28.4
Cc1cccc(C)c1NC(=O)C1(N(Cc2ccco2)C(=O)c2ccccn2)CCCC1	-26.4
Cc1ccc(C)c(NC(=S)Nc2cccnc2)c1	-12.1
O=C(CSc1nnc(-c2ccccn2)n1Cc1ccco1)Nc1ccc2c(c1)OCO2	-34.5
Cc1nnc(-c2cnn(C)c2N)n1Cc1cccc(Cl)c1	-12.8
COc1ccc(CCNC(=O)CSc2nc(C)nc3c2c(=O)n(C)c(=O)n3C)cc1OC	-12.4
CCN(CCO)Cc1csc2c(Br)cccc12	-9.0
CN(C)CCCN(C(=O)c1cc(-c2cccs2)nc2ccccc12)c1nc2c(F)cccc2s1	3.9

Arranged by value in OX1R antag (largest number first): 3 from the list above.
smiles	OX1R antag
Cc1c(O)nc2sc3ccccc3n2c1=O	9.3
O=Cc1cn(-c2ccccc2)nc1-c1cc2c(ccc3ccccc32)oc1=O	-3.3
CNS(=O)(=O)c1cccc(C(=O)OCC(=O)NCCCc2ccccc2)c1	-11.6

The list continues:
smiles	OX1R antag
O=C(CCCN1C(=O)/C(=C/c2ccccc2)SC1=S)Nc1cccc(O)c1	13.0
O=C(Nc1ccccc1)C1CC(O)CN1S(=O)(=O)c1ccc([N+](=O)[O-])cc1 (configuration not stated)	3.7
COc1ccc(S(=O)(=O)N2CCOCC2)cc1NC(=O)c1ccccc1C	-10.5
c1csc(-c2noc(CN3CCc4sccc4C3)n2)c1	-17.2
O=C1Nc2ccccc2/C1=C/c1cccnc1	-3.3
C/C(CCc1oc2ccc(Cl)cc2c1-c1ccc(C)o1)=N\O	-28.6
CCC(=O)NCc1cc(-c2nn(C)c(=O)c3ccccc23)ccc1C	-38.3
CCOc1ccccc1OCCCC(=O)NCCc1ccc(S(N)(=O)=O)cc1	-7.9
Cn1nnnc1SCC(=O)N1CCN(c2cccc(Cl)c2)CC1	-13.5
c1ccc(SCCOCCn2cncn2)cc1	-9.3
O=C(CNC(=O)c1ccc(Cl)cc1)c1ccccc1	-7.6
CCOC(=O)c1c(NC(=O)CN2CCOCC2)sc2c1CCCC2=O	-17.9
O=C(Cn1cc(/C=C\[N+](=O)[O-])c2ccccc21)Nc1ccccc1	17.6
Cc1cc(C(=O)CN2C(=O)NC3(CCCCC3)C2=O)c(C)n1-c1ccc2c(c1)OCO2	-21.4
O=C(COc1ccccc1[N+](=O)[O-])OC1CCS(=O)(=O)C1 (configuration not stated)	-15.6
CN(C)c1ccc(NC(=O)c2ccc(Cn3cc([N+](=O)[O-])cn3)cc2)cc1	-11.4
Brc1ccccc1CN1CCC(Cc2ccccc2)CC1	-28.9
OCCNc1ncnc2c1ncn2Cc1ccccc1	-6.3
O=C(Nc1ccc(C(=O)O)cc1)/C(=C\c1ccco1)NC(=O)c1ccco1	-5.1
Cc1cc(C)c2c(N)c(C(=O)Nc3c(C)n(C)n(-c4ccccc4)c3=O)sc2n1	-21.3
CCCCC(=O)Nc1ccc2c(c1)C(=O)NC2=O	-12.8
CC(C)C1CC(CCN)(Cc2ccccc2)CCO1 (configuration not stated)	-6.7
O=C(O)CCc1ccc(-c2ccc(Cl)cc2)o1	-11.9
Cn1c2ccccc2c(=O)c2c(=O)n(Cc3ccco3)c(-c3ccc(F)cc3)nc21	-27.3
O=C(NNC(=O)C1CCN(S(=O)(=O)c2cccc(C(F)(F)F)c2)CC1)C1CC1	8.3
COc1ccccc1OCC(=O)Nc1ccc2c(c1)C(=O)N(CC1CCCO1)C2=O (configuration not stated)	-25.5
O=[N+]([O-])c1cc(S(=O)(=O)Nc2ccccc2)ccc1-n1nnc2ccccc21	-15.8
COc1ccc(C(=O)N(C)C(C)c2ccon2)cc1OC1CCN(C(C)C)CC1 (configuration not stated)	-8.3
Cn1cccc1C(=O)C(=O)Nc1ccc(Cl)cc1	-14.3
Cc1cc(C)cc(NC(=O)CCN2CC(C)OC(C)C2)c1 (configuration not stated)	-11.3
Cc1ccc(C)c(N2C(=O)CS/C2=N\NC(=O)c2ccccc2Cl)c1	-17.9
Cc1nn(-c2ccccc2)c2sc(C(=O)N(Cc3ccco3)C(C)C(=O)NC(C)(C)C)cc12 (configuration not stated)	-34.9
O=C(NC1CCCC1)C(c1ccccc1F)N(C(=O)c1ccco1)C1CCCC1 (configuration not stated)	-24.6
Cc1cccc(Nc2c([N+](=O)[O-])ccc3nonc23)c1	-4.8
COc1ccc(/C=C/C(=O)Nc2ccc(C34CC5CC(CC(O)(C5)C3)C4)cc2)cc1OC	6.0
O=C(NC1CCN(Cc2ccccc2)CC1)C12CC3CC(CC(C3)C1)C2	-24.5
Cc1c(NC(=O)c2cnn3cccnc23)c(=O)n(-c2ccccc2)n1C	-1.5
Cc1ccc(-n2c(-c3nn(C)cc3Cl)n[nH]c2=S)cc1	-18.6
O=C(NCc1ccncc1)C1CCCCC1	5.0
O=C(COC(=O)Cc1c[nH]c2ccccc12)Nc1c(Cl)cccc1C(F)(F)F	7.1
Cc1cc(C)c2nc(-c3ccccn3)cc(C(=O)NCc3cc(C)n(C)n3)c2c1	-20.8
CCC(C)c1ccccc1NC(=O)c1cccnc1 (configuration not stated)	-14.3
COc1cc2[nH]c(=O)n(CCC(=O)N3CCN(c4cccc(C)c4C)CC3)c(=O)c2cc1OC	-34.0
CC(=O)c1cccc(-n2nnnc2SCC(=O)Nc2ccccc2N2CCCCC2)c1	-7.2
Cc1sc2nc(SCC(=O)NCCOCCO)nc(N)c2c1C	-7.2
O=C1Cc2ccccc2C(=O)N1c1cccc(Cl)c1	-18.9
O=C(Nc1ccc(F)cc1)c1cn(-c2ccccc2)nc1-c1ccncc1	-11.5
CCCNC(=O)C1(CC2CC(c3ccccc3)=NO2)CCN(C(=O)CCCCCBr)CC1 (configuration not stated)	-31.5
O=C(COC(=O)c1ccccc1Nc1ccccc1)NCc1ccccc1Cl	-13.1
CCOc1ccc(-c2nc(S(=O)(=O)c3ccccc3)c(NCc3cccnc3)o2)cc1	-36.8
COc1ccc(-n2c(=O)[nH]cc(C(=O)Nc3ccc4c(c3)OCCO4)c2=O)cc1	-4.1
Fc1ccccc1CNC(=S)Nc1ccc(Cl)cc1	5.5
O=C(COc1ccccc1)Nc1cccc(-c2cn3cccnc3n2)c1	-17.3
O=S(=O)(c1ccc2c(c1)oc1ccccc12)N1CCOCC1	-10.1
Cn1c(=O)c2c(nc(CN3CCN(C(=O)c4ccco4)CC3)n2CC(N)=O)n(C)c1=O	-5.4
CCCc1cc(=O)[nH]c(SCC(=O)c2ccc(S(=O)(=O)N3CCCC3)cc2)n1	-7.3
CCOc1cc(CO)c(Br)cc1OCC(=O)O	0.0
Cc1nc(Nc2ccccc2)sc1C(=O)Nc1ccccc1	-25.0
Cc1ncoc1C(=O)N1CCCC(C(=O)c2ccc(-c3ccccc3)cc2)C1 (configuration not stated)	-15.4
Cc1ccc(NC(=O)c2cc(C)n(-c3cccc(C)c3)c2C)cc1	-36.5
Cc1ccc(NC(=O)c2ccc(NC(=O)C3CCCCC3C(=O)O)cc2)cc1 (configuration not stated)	-6.2
COc1ccc(-c2cc(-c3n[nH]c(=S)n3-c3ccccc3OC)[nH]n2)cc1	-15.9

This is a subset, and most or all hits are left out here.
